# Screens from PubChem.
# RXFP1 antagonist: RXFP1 (human) relaxin receptor antagonism; actives 0.59% (n = 350,000); Q9HBX9; AID 1259400; HEK293-RXFP1, relaxin-stimulated cAMP HTRF, 30 min; hits give low values; activity change, negative = inhibition, % at 57.5 µM;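 active means activity change of -60% or lower, but not beyond a set lower limit; inconclusive means change between -60% and -40%, or beyond the set limit; inactive means change above -40%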; further: on the % scale 0 is the no-effect control and ±100 the full control effect
# D2 agonist: D2 dopamine receptor (human) agonism; P14416; HEK293 T-REx D2 cells, calcium flux agonist mode; activation, % at 2 µM; actives 0.53% (n = 340,000);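 active means activation over 3 SD above normal in the single-dose calcium agonist read, cut at about 30% in these data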; further: 0% is about no effect
#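 Tetracycline-induced HEK293 T-REx cells with force-coupled D2 receptor, plated overnight at 30 C, loaded with no-wash calcium dye. After a 10 s baseline, compound was pin-added and calcium flux read kinetically for 180 s; calcium rises flagged agonists.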
# TRHR agonist: activates the human TRH receptor; P34981; actives 0.18% (n = 360,000); AID 493084; activation, % at 2 µM; TRHR cells, calcium flux fluo-8, FDSS agonist mode; in the data active means activation above about 30%; further: 0% is about no effect
# Target sequence (P34981 whole entry, looked up): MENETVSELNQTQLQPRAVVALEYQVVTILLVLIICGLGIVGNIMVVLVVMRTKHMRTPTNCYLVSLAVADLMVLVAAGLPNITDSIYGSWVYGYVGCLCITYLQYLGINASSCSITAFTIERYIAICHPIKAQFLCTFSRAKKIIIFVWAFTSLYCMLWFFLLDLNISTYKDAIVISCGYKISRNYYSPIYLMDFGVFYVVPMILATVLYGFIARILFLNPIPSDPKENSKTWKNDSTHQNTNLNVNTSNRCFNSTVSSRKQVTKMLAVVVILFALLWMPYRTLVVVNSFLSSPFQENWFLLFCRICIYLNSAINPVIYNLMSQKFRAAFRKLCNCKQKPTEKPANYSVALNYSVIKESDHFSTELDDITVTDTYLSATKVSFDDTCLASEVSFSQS
#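 Agonist-mode FDSS calcium read (Ex 480/Em 530, 1 s cycles) in 1536-well TRHR cells with fluo-8 dye, after 10-cycle baseline and 23 nL compound addition; TRH at EC20 (10 nM final) added afterwards for the enhancer phase.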
# D2 antag: antagonists of human D2 dopamine receptor; actives 2% (n = 340,000); P14416; AID 485344; HEK293 TREx D2 cells, calcium flux, dopamine EC80; inhibition, % at 10 µM; in the data active means inhibition above about 30%; further: 0% is about no effect
#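 Dopamine at EC80 is the agonist stimulus; test compounds precede it by 180 s. Calcium flux read kinetically in a force-coupled, inducible HEK293 T-REx D2 cell line.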
# D2 potentiator: positive allosteric modulators of human D2 dopamine receptor | HEK293 T-REx D2, calcium flux, EC20 dopamine potentiation | potentiation, % at 10 µM | actives 0.34% (n = 340,000) | AID 485347;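 active means potentiation over 3 SD above the plate norm, cut at about 30% in these data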; further: 0% is about no effect
#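 Potentiation of an EC20 dopamine calcium response measured kinetically over 180 s, after a preceding 180 s compound-only read flagging agonists. Cells: inducible Hek293 Trex D2 line, 4000/well, cultured overnight at 30 C before dye loading.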
# TRHR PAM: TRH receptor (human) allosteric enhancement. actives 0.66% (n = 360,000). enhancement, % at 2 µM. TRHR cells, fluo-8 calcium fluorescence, EC20 TRH enhancement; in the data active means enhancement above about 30%; further: 0% is about no effect
#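 TRHR-expressing cells loaded with fluo-8 calcium dye were read kinetically (ex 480/em 530) during compound addition, then stimulated with an EC20 of TRH (10 nM final). Enhancement of the Gq-mediated intracellular calcium response was scored.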
# * hit, by the source's call; ? = inconclusive; nt = not tested or not shown; & = joins results of further samples.
# Abbreviations – A = RXFP1 antagonist; B = D2 agonist; C = TRHR agonist; D = D2 antag; E = D2 potentiator; F = TRHR PAM
1) COC1=CC(=O)CC(C)C12Oc1c(Cl)c(OC)cc(OC)c1C2=O (stereo not given)
  A = nt | B = -1.1 | C = 0.1 | D = -30.6 | E = 3.1 | F = 8.4
2) O=C(O)Cc1cc(I)c(Oc2ccc(O)c(I)c2)c(I)c1
  A = nt | B = -1.0 | C = 0.5 | D = -6.2 | E = 1.6 | F = -4.9
3) CC(C)(Sc1cc(C(C)(C)C)c(O)c(C(C)(C)C)c1)Sc1cc(C(C)(C)C)c(O)c(C(C)(C)C)c1
  A = 2.3 | B = 1.0 | C = 0.1 | D = -10.8 | E = -6.0 | F = 6.7
4) COc1ccc(Cl)cc1C(=O)NCCc1ccc(S(=O)(=O)NC(=O)NC2CCCCC2)cc1
  A = -9.2 | B = -0.5 | C = -0.1 | D = 9.7 | E = 6.5 | F = 4.7
5) On1ccccc1=S
  A = nt | B = 1.0 | C = 2.7 | D = 18.6 | E = 10.4 | F = -0.8
6) O=C1NCCN1c1ncc([N+](=O)[O-])s1
  A = nt | B = 59.1* | C = -0.1 | D = 54.0* | E = -9.9 | F = -1.2
7) c1coc(CNc2ncnc3nc[nH]c23)c1
  A = nt | B = 0.2 | C = 0.6 | D = -1.5 | E = 1.1 | F = -0.4
8) Clc1ccccc1C(c1ccccc1)(c1ccccc1)n1ccnc1
  A = -93.7* | B = 2.4 | C = 0.2 | D = -29.3 | E = -0.7 | F = -3.0
9) C[N+]1(C)CC[C@H](OC(=O)[C@@](O)(c2ccccc2)C2CCCC2)C1
  A = nt | B = -0.1 | C = 0.0 | D = -17.2 | E = -3.8 | F = -3.5
10) CN(C)CCCN1c2ccccc2CCc2ccc(Cl)cc21
  A = -38.1 | B = 2.0 | C = 4.2 | D = 89.1* | E = -29.5 | F = 3.2
11) CNCC(O)c1ccc(O)c(O)c1 (stereo not given)
  A = 59.0 | B = 64.9* | C = 1.8 | D = 84.7* | E = -17.9 | F = -2.0
12) CC(=O)O[C@H]1C(=O)[C@@]2(C)[C@H]([C@H](OC(=O)c3ccccc3)[C@]3(O)C[C@H](OC(=O)[C@H](O)[C@@H](NC(=O)c4ccccc4)c4ccccc4)C(C)=C1C3(C)C)[C@]1(OC(C)=O)CO[C@@H]1C[C@@H]2O
  A = nt | B = nt | C = 1.8 | D = nt | E = -1.5 | F = 3.1
13) CNC(CC(C)C)C(=O)NC1C(=O)NC(CC(N)=O)C(=O)NC2C(=O)NC3C(=O)NC(C(=O)NC(C(=O)O)c4cc(O)cc(O)c4-c4cc3ccc4O)C(O)c3ccc(c(Cl)c3)Oc3cc2cc(c3OC2OC(CO)C(O)C(O)C2OC2C[C@](C)(N)C(O)C(C)O2)Oc2ccc(cc2Cl)C1O (stereo not given in full)
  A = nt | B = -1.4 | C = -0.3 | D = 5.5 | E = -0.4 | F = 2.1
14) O=C(O)CCCc1ccccc1
  A = -18.2 | B = -3.0 | C = -0.7 | D = -8.1 | E = 6.2 | F = 2.8
15) CN(C)c1nc(N(C)C)nc(N(C)C)n1
  A = -3.3 | B = 1.7 | C = 0.4 | D = -46.4 | E = 3.6 | F = -5.4
16) CCc1cc(C(N)=S)ccn1
  A = -6.4 | B = 0.7 | C = -0.4 | D = 6.0 | E = 6.3 | F = -3.9
17) CC#C[C@]1(O)CC[C@H]2[C@@H]3CCC4=CC(=O)CCC4=C3[C@@H](c3ccc(N(C)C)cc3)C[C@@]21C
  A = -36.4 | B = 15.3 | C = 7.0 | D = 26.6 | E = 6.8 | F = 6.0
18) COC(=O)C1C(O)CCC2CN3CCc4c([nH]c5ccccc45)C3CC21 (stereo not given)
  A = -3.8 | B = -1.6 | C = 2.0 | D = 49.9* | E = -23.4 | F = -1.0
19) CCCCCCCCCCCCCCCC(=O)NCCO
  A = -2.8 | B = -1.1 | C = 1.1 | D = -3.1 | E = -6.3 | F = -4.4
20) NS(=O)(=O)c1cc2c(cc1Cl)NC=NS2(=O)=O
  A = 0.3 | B = nt | C = -0.3 | D = nt | E = nt | F = -0.5
21) Nc1ncnc2c1ncn2C1O[C@H](CO)[C@@H](O)[C@@H]1O (stereo not given in full)
  A = nt | B = -0.1 | C = 0.5 | D = 6.5 | E = 25.4 | F = -4.0
22) COC(=O)[C@H]1[C@H]2C[C@H]3c4[nH]c5ccccc5c4CCN3C[C@H]2CC[C@@H]1O
  A = nt | B = -1.0 | C = 0.3 | D = 86.8* | E = -22.9 | F = -4.5
23) O=C(C1CCCCC1)N1CC(=O)N2CCc3ccccc3C2C1 (stereo not given)
  A = 2.6 | B = 1.3 | C = 0.3 | D = -8.8 | E = -8.2 | F = 0.8
24) CN(C)CCCOc1nn(Cc2ccccc2)c2ccccc12
  A = 3.5 | B = nt | C = 0.6 | D = nt | E = nt | F = 17.4
25) CC(=O)Oc1ccc(C(c2ccc(OC(C)=O)cc2)c2ccccn2)cc1
  A = 9.4 | B = 2.2 | C = 0.5 | D = -29.6 | E = -5.1 | F = -7.9
26) Nc1ncn(C2O[C@H](CO)[C@@H](O)[C@H]2O)c(=O)n1 (stereo not given in full)
  A = nt | B = -0.8 | C = -1.9 | D = 13.3 | E = 13.2 | F = 5.9
27) NCc1ccc(S(N)(=O)=O)cc1
  A = 7.7 | B = 1.3 | C = 0.4 | D = -3.0 | E = -3.1 | F = -4.0
28) CCC(C)(C)C(=O)O[C@H]1C[C@@H](C)C=C2C=C[C@H](C)[C@H](CC[C@@H]3C[C@@H](O)CC(=O)O3)[C@H]21
  A = ? | B = -0.2 | C = 0.6 | D = 3.5 | E = 3.8 | F = 1.9
29) O=C1CC[C@@H](C(=O)O)N1
  A = 11.7 | B = -0.4 | C = 0.6 | D = -19.3 | E = -4.1 | F = -0.2
30) O=C(/C=C/c1ccc(O)cc1)c1ccc(O)cc1O
  A = nt | B = -0.5 | C = 0.4 | D = 12.8 | E = -2.3 | F = 8.5
31) COc1ccc2c3c1OC1CC(O)C=CC31CCN(C)C2 (stereo not given)
  A = 15.9&-0.9 | B = -1.4&0.6 | C = 0.1&0.1 | D = 0.3&11.2 | E = -3.2&0.8 | F = 1.5&0.8

# In another format: results already given
no.	smiles	RXFP1 antagonist	D2 agonist	TRHR agonist	D2 antag	D2 potentiator	TRHR PAM
18	COC(=O)C1C(O)CCC2CN3CCc4c([nH]c5ccccc45)C3CC21 (stereo not given)	-3.8	-1.6	2.0	49.9*	-23.4	-1.0
19	CCCCCCCCCCCCCCCC(=O)NCCO	-2.8	-1.1	1.1	-3.1	-6.3	-4.4
20	NS(=O)(=O)c1cc2c(cc1Cl)NC=NS2(=O)=O	0.3	nt	-0.3	nt	nt	-0.5
21	Nc1ncnc2c1ncn2C1O[C@H](CO)[C@@H](O)[C@@H]1O (stereo not given in full)	nt	-0.1	0.5	6.5	25.4	-4.0
22	COC(=O)[C@H]1[C@H]2C[C@H]3c4[nH]c5ccccc5c4CCN3C[C@H]2CC[C@@H]1O	nt	-1.0	0.3	86.8*	-22.9	-4.5
23	O=C(C1CCCCC1)N1CC(=O)N2CCc3ccccc3C2C1 (stereo not given)	2.6	1.3	0.3	-8.8	-8.2	0.8
24	CN(C)CCCOc1nn(Cc2ccccc2)c2ccccc12	3.5	nt	0.6	nt	nt	17.4
25	CC(=O)Oc1ccc(C(c2ccc(OC(C)=O)cc2)c2ccccn2)cc1	9.4	2.2	0.5	-29.6	-5.1	-7.9
26	Nc1ncn(C2O[C@H](CO)[C@@H](O)[C@H]2O)c(=O)n1 (stereo not given in full)	nt	-0.8	-1.9	13.3	13.2	5.9
27	NCc1ccc(S(N)(=O)=O)cc1	7.7	1.3	0.4	-3.0	-3.1	-4.0
28	CCC(C)(C)C(=O)O[C@H]1C[C@@H](C)C=C2C=C[C@H](C)[C@H](CC[C@@H]3C[C@@H](O)CC(=O)O3)[C@H]21	?	-0.2	0.6	3.5	3.8	1.9

# Not all compounds are listed; count on the stated rates, not on these rows.
